Assay outcomes as filed in PubChem.
VACV Venus inh: qHTS for Stage-Specific Inhibitors of Vaccinia Orthopoxvirus: Venus Reporter Primary qHTS; Vaccinia virus Venus reporter expression, fluorescence; Potency, µM (highest dose often 36.5 µM), for the others: at the highest dose activity change, negative = inhibition, actives largely listed as inhibitors; 0.46% of 330,000 active; active means well fitted inhibition curve with a large enough effect; inconclusive means small, poorly fitted or top-dose-only effect; inactive means no such curve, though single readings can be large or run the other way; tested in A549 cells; note: nearly all actives have a fitted effect of over 30% in size; inactives centre near -10
VACV mCherry inh: qHTS for Stage-Specific Inhibitors of Vaccinia Orthopoxvirus: mCherry Reporter Primary qHTS | Vaccinia virus mCherry reporter infection, fluorescence; about a quarter of the inactives have no number | Potency, µM (top dose mostly 36.5 µM), for inactives: at the highest dose activity change, negative = inhibition, usual class: inhibitors | 0.63% of 310,000 active; active = well fitted inhibition curve with a large enough effect; inconclusive = small, poorly fitted or top-dose-only effect; inactive = no such curve, though single readings can be large or run the other way; tested in A549 cells; note: nearly all actives have a fitted effect of over 35% in size; inactives centre near -10
The depositor's hits bear a star; i = inactive; ? = inconclusive; nt = no result given; & = joins results of further samples; [ ] = another dose, or the depositor's remark. % is set by controls: 0 for no effect and ±100 for the full control effect; potency is the fitted concentration of half-maximal effect.

SMILES	VACV Venus inh	VACV mCherry inh
Cc1ccc(C)c(N2CCN(CCCNC(=O)c3nnc(Cc4ccc(F)cc4Cl)o3)CC2)c1	-25.9%	-28.4%
CCCCC(C(=O)NC(C)(C)C)N(Cc1ccccc1Cl)C(=O)c1snc(C(N)=O)c1N (centres undefined)	-6.0%	i
Oc1[nH]c2ccccc2c1N=Nc1c(F)c(F)c(F)c(F)c1F	-4.9%	i
CCOc1cc(C(=O)Nc2ccc3c(c2)n(C)c(=O)c(=O)n3C)cc(OCC)c1OCC	-5.1%	-7.4%
CCN(CC(=O)Nc1ccccc1C(F)(F)F)C(=O)Cn1c(=O)cnc2ccccc21	-2.6%	-27.3%
C=CCc1cc(Cl)ccc1OC(=O)Nc1cccc(Cl)c1	-0.8%	-2.6%
O=C1N[C@@H](Cc2c[nH]c3ccccc23)COC(=O)[C@H](Cc2ccc(F)cc2)C/C=C\C[C@H]1CC(=O)N(CCO)Cc1ccccc1	?	?
COc1ccc(S(=O)(=O)c2c(O)c3ccc(C(=O)NCc4ccccc4)cc3[nH]c2=O)cc1	-2.2%	-8.2%
O=c1[nH]cnc2c1C1(CCCC1)Cc1ccccc1-2	-23.0%	nt
CCOc1ccccc1N1CCN(CC(=O)NC(=O)NCc2ccco2)CC1	-3.5%	i
CCN1CCN(C(c2cc(OC)c(OC)c(OC)c2)c2nnnn2C(C)C)CC1 (centres undefined)	-12.0%	nt
COC1(OC)N=C(N)C2(C#N)C(c3ccc(C)cc3)C12C#N (centres undefined)	2.9%	nt
CC(C)c1cc(C(=O)N2CCCC(Nc3ccc(F)cc3)C2)n[nH]1 (centres undefined)	-14.2%	i
C=CC[C@H](CC(=O)N(CCO)Cc1ccccc1)C(=O)NC[C@H](OC(=O)[C@@H](CC=C)CC(=O)OC(C)(C)C)c1ccccc1	?	?
COc1ccc2ccc(OC)c(/C=N/NC(=O)c3cc4ccccc4o3)c2c1	-28.6%	-16.2%
Cc1cccc(C(=O)OCC(=O)c2ccc3c(c2)OCO3)c1O	-5.3%	i
CCN(CC)C(=O)C1=C(C)N(CCCOC)C(=O)C(CC(=O)NCCCCc2ccccc2)C1 (centres undefined)	-13.2%	i
Cc1ccc(S(=O)(=O)Nc2ccc3c(c2)CC(=O)N([C@H](C)CO)C[C@@H](C)[C@H](CN(C)Cc2ccc(-c4ccccc4)cc2)O3)cc1	?	?
CN(C)C(=O)Cn1c(SCC(=O)NC2CCCCC2)nc2ccccc21	-7.6%	-5.9%
N#Cc1ccccc1NC(=S)NC(=O)c1cccnc1	-12.5%	i
CCOC(=O)C1=C(C)NC(SC(C)=O)=NC1c1ccc(OC(C)=O)c(OC)c1 (centres undefined)	-24.1%	nt
CCn1c(NC(=O)c2ccccc2)nc2ccccc21	-12.4%	-6.1%
CCOc1cc(CN2CCN(c3ncccn3)CC2)ccc1OC	3.3%	-4.3%
O=C(O)CC(SCc1ccc(C(=O)O)o1)C(=O)O (centres undefined)	-5.3%	i
COc1ccc(C(=O)Nc2ccnn2C2CCN(CC3CC=CCC3)CC2)cc1 (centres undefined)	-13.9%	-10.8%
COc1ccc(C(=O)n2c(-c3ccco3)nc3ccccc32)cc1	?	?
O=C(Cc1ccccc1F)Nc1cc(Cl)ccc1N1CCCC1	-5.3%	-10.2%
COc1ccccc1N1CCN(Cc2cc(Br)c(O)c3ncccc23)CC1	?	?
O=C1c2[nH]nc(-c3ccccc3O)c2C(c2cccc(Cl)c2)N1CC1CCCO1 (centres undefined)	?	?
CN(C)CCN=Cc1c(O)n(-c2cccc3ccccc23)c(=O)[nH]c1=O	-3.2%	-14.7%
CCc1nnc(NC(=O)CCC(=O)NCC2CCCO2)s1 (centres undefined)	13.7%	nt
C[C@@H]1CN([C@H](C)CO)C(=O)CCCn2nncc2CO[C@H]1CN(C)C(=O)c1ccncc1	-3.2%	-16.2%
O=C(O)c1cn(Cc2ccccc2)c2ccccc2c1=O	-4.0%	-13.1%
COc1ccc(C)cc1NC(=O)C1CCN(S(=O)(=O)c2ccc3c(c2)CCCN3C(C)=O)CC1	-3.6%	-0.4%
CN/C=C(/Cl)P(=O)(OC(C)C)OC(C)C	1.6%[7.34 µM]	-0.7%[7.34 µM]
COc1ccc(OC)c(S(=O)(=O)n2nc(C)cc2C)c1	-12.6%	-11.1%
C/C(=N\Nc1nc2ccccc2[nH]1)c1ccc(C)o1	-5.4%	-15.2%
COc1cccc(CN(C)C(=O)[C@@H](NC(=O)c2ccc(C)cc2)C(C)C)c1	-8.7%	-6.8%
CC1CCN(CC[C@H]2CCCN2S(=O)(=O)c2cccc(O)c2)CC1	-1.4%	i
COc1ccc(OC)c(S(=O)(=O)Nc2ccc3c(c2)OCCO3)c1	2.1%	i
CNS(=O)(=O)c1ccc(NCC2COc3ccccc3O2)c([N+](=O)[O-])c1 (centres undefined)	-23.7%	?
O=C(CSCc1cnn(-c2ccccc2)c1-n1cccc1)NCC1CCCO1 (centres undefined)	?	nt
CC(C)Cc1nnc(NC(=O)c2cc(-c3ccncc3)nc3ccccc23)s1	-9.3%	-11.3%
O=C(Oc1c(Cl)cc(Cl)c2ccccc12)N1CCCCC1	?	nt
O=C(CSc1nnc(CNC(=O)c2c(F)cccc2Cl)o1)NCc1ccc2c(c1)OCO2	?	-18.5%
CC[C@H]1C(c2ccc(F)cc2)=NN(c2ccccc2)[C@@H]1CO	-15.4%	-24.2%
O=S(=O)(c1ccc(SCCOc2ccc(Br)cc2)nc1)N1CCCC1	-20.4%	i
C[C@@H]1CN([C@H](C)CO)C(=O)CCCn2nncc2CO[C@H]1CN(C)Cc1ccc2c(c1)OCO2	-12.6%	i
COc1ccc(C(=O)Nc2ccc(N3CCOCC3)cc2)cc1S(=O)(=O)NC1CCCC1	-11.5%	-1.7%
Cc1ccc(Nc2nc3c(c(=O)[nH]c(=O)n3C)n2Cc2ccc(F)cc2)cc1	-9.0%	nt
Next part.
SMILES	VACV Venus inh	VACV mCherry inh
Cn1c(SCC(=O)c2c(N)n(C)c(=O)n(C)c2=O)nnc1-c1ccc(F)cc1	-2.7%	-16.2%
CC[C@]12c3[nH]c4cc(CCC(=O)N(C)C)ccc4c3CCN1C(=O)[C@@H](CC(=O)NCc1ccco1)C[C@@H]2C(=O)N1CCN(C(=O)c2ccco2)CC1	-12.9%	i
COc1ccc(S(=O)(=O)NCc2ccc3c(c2)CCN3C(=O)c2ccc(C)cc2)cc1Cl	-17.2%	-22.0%
Cc1cccc(NC(=O)CSc2nc3ccccc3nc2N2CCC(C)CC2)c1	10.1%	?
Cc1nc(CNS(=O)(=O)c2cc(F)ccc2F)cs1	-3.4%	i
COc1cc(OC)cc(C(=O)NNc2nc3cc4c(cc3s2)OCO4)c1	-11.0%	?
Cc1c(Cl)cccc1NC(=O)Cn1nnc(-c2nc(-c3ccccc3)no2)c1N	-4.6%	-4.0%
COC(=O)NCC(c1cccnc1)N1CCN(c2ccccc2F)CC1 (centres undefined)	2.9%	-17.0%
CCN(CC)CCN(C(=O)c1ccc2c(c1)OCCO2)c1nc2cc3c(cc2s1)OCO3	-6.5%	-13.1%
O=C(NN=C1CCCC1)c1ccn[nH]1	2.1%	-2.9%

Molecules listed so far that contain a Cl atom:
SMILES	VACV Venus inh	VACV mCherry inh
Cc1ccc(C)c(N2CCN(CCCNC(=O)c3nnc(Cc4ccc(F)cc4Cl)o3)CC2)c1	-25.9%	-28.4%
CCCCC(C(=O)NC(C)(C)C)N(Cc1ccccc1Cl)C(=O)c1snc(C(N)=O)c1N (centres undefined)	-6.0%	i
C=CCc1cc(Cl)ccc1OC(=O)Nc1cccc(Cl)c1	-0.8%	-2.6%
O=C(Cc1ccccc1F)Nc1cc(Cl)ccc1N1CCCC1	-5.3%	-10.2%
O=C1c2[nH]nc(-c3ccccc3O)c2C(c2cccc(Cl)c2)N1CC1CCCO1 (centres undefined)	?	?
CN/C=C(/Cl)P(=O)(OC(C)C)OC(C)C	1.6%[7.34 µM]	-0.7%[7.34 µM]
O=C(Oc1c(Cl)cc(Cl)c2ccccc12)N1CCCCC1	?	nt
O=C(CSc1nnc(CNC(=O)c2c(F)cccc2Cl)o1)NCc1ccc2c(c1)OCO2	?	-18.5%
COc1ccc(S(=O)(=O)NCc2ccc3c(c2)CCN3C(=O)c2ccc(C)cc2)cc1Cl	-17.2%	-22.0%
Cc1c(Cl)cccc1NC(=O)Cn1nnc(-c2nc(-c3ccccc3)no2)c1N	-4.6%	-4.0%

(further entries)
SMILES	VACV Venus inh	VACV mCherry inh
COc1ccc2c(c1)c1c(c(=O)n(Cc3ccccc3)c(=O)n1Cc1cccc(Cl)c1)n2C	-10.3%	-18.9%
O=C(CCCn1cnc2ccccc2c1=O)Nc1ccccc1F	-3.0%	-0.4%
CC(=O)OC1C2(CC3N4C(=O)C5(CO)SSC4(CC31O)C(=O)N5C)OC(C)C(C)(C)C2=O (centres undefined)	3.16µM*	?
CCN1CCN(C(CCc2ccccc2)C(=O)NC2CCCCC2)CC1 (centres undefined)	0.3%	37.6%[activator]
CC(=O)NS(=O)(=O)c1ccc(NC(=O)C2c3ccccc3Oc3ccccc32)cc1	-9.0%	-21.6%
Cc1ccc(S(=O)(=O)NC(=O)C2(C)CCN2C(=O)Cc2cccs2)cc1 (centres undefined)	-3.1%	-1.8%
CC1(C)CCc2cc(-c3ccnc(=S)[nH]3)ccc2O1	-4.3%[7.34 µM]	-5.4%[7.34 µM]
C=CCNC(=O)C(C(=O)OCC)C1CCCCC1 (centres undefined)	0.3%	-6.5%
Cc1ccc(-n2nc3c(c2NC(=O)C2CC2)CS(=O)(=O)C3)cc1	-9.6%	-6.2%
C=CCN=c1scc(-c2ccco2)n1/N=C/c1ccc(O)c(O)c1O	-9.4%	-22.2%

For reference, 2 of the compounds above:
SMILES	VACV Venus inh	VACV mCherry inh
COc1ccc2c(c1)c1c(c(=O)n(Cc3ccccc3)c(=O)n1Cc1cccc(Cl)c1)n2C	-10.3%	-18.9%
O=C(CCCn1cnc2ccccc2c1=O)Nc1ccccc1F	-3.0%	-0.4%

(more compounds)
SMILES	VACV Venus inh	VACV mCherry inh
Cc1ccccc1NC(=O)Cn1c(=O)n(CCC(=O)NCc2ccc3c(c2)OCO3)c(=O)c2sccc21	-10.2%	-6.9%
COc1ccc(S(=O)(=O)N2CCC(N3CCN(c4ccccc4OC)CC3)CC2)cc1	-11.9%	-2.9%
O=S(=O)(Nc1ccc(F)cc1)c1cccc2nsnc12	-3.0%	-0.7%
COCC1CCCCN1C(=O)CCCn1nnnc1CN1CCC(C)CC1 (centres undefined)	-10.6%	-0.3%
O=C(CNC(=O)c1ccc2c(=O)n3c(nc2c1)CCC3)Nc1ccc(F)c(F)c1	-9.4%	-21.2%
CCc1ccccc1Nc1cc(C(=O)NCc2ccccn2)c2ccccc2n1	-10.0%	i
COC(=O)c1cccc(NC(=O)c2ccco2)c1	2.7%	-4.0%
CC1(C(=O)NS(=O)(=O)c2ccccc2Cl)CCN1C(=O)C1(c2ccc(Cl)cc2)CC1 (centres undefined)	4.8%	29.6%
Cc1cc(Cl)ccc1NC(=S)NCc1ccccc1Cl	-3.8%	-14.9%
Cc1ccc(N(CCC(=O)O)S(=O)(=O)c2ccccc2)cc1	-18.3%	i
O=C(CN1CCCCCC1)N1c2ccccc2Sc2ccc(C(F)(F)F)cc21	-11.9%	-0.1%
Cc1ccc(C(=O)NNC(=O)CSc2n[nH]c(-c3cccnc3)n2)cc1	-18.3%	0.2%
COc1ccc(CC(=O)N2CC(=O)N(CCc3ccccc3)C(=O)C2)cc1	5.2%	nt
COc1ccc(NC(=O)c2ccc(Br)o2)cc1	-8.2%	-3.6%
CCCc1cc(=O)oc2c(CN3CCOCC3)c(O)ccc12	-7.2%	nt
CCCNC(=O)Cn1nc(-c2ccc(C)cc2)c2cnc3ccc(CC)cc3c21	-0.9%	-7.6%
COc1ccc(-n2c(Cc3cccn3C)nnc2SCC(=O)Nc2nc(C)cs2)cc1	-6.7%	-0.8%
c1ccc(-c2nc(NCc3cccnc3)c3ccccc3n2)cc1	?	-23.3%
CSCCC(NC(=O)OCc1ccccc1)NC(=O)OCc1ccccc1	0.3%	4.9%
CC1=C/C(=N\NC(=O)c2ccccc2)CC1	-9.4%	i
C/C(=N\NC(=O)c1cc(C)oc1C)c1ccc2ccccc2c1	-13.8%	6.2%
Cc1ccc(C)c(S(=O)(=O)N2CCCC2CNC(=O)C(=O)NCc2cccs2)c1 (centres undefined)	-12.7%	-5.1%
Cc1cc(NC(=O)c2ccco2)c(=O)n(Cc2cccc(C(F)(F)F)c2)c1	-11.8%	-21.2%
CC(C)(C)NCC(O)(c1ccc(Cl)cc1)c1ccc(Cl)cc1	0.3%	?
CC(C)c1ccc(C(C(=O)NC2CCCCC2)N(C(=O)c2ccccn2)c2cccnc2)cc1 (centres undefined)	-8.3%	-1.1%
CN1CCCC(OC(=O)c2cccc(Br)c2)C1 (centres undefined)	-17.0%	i
O=C(Nc1ccccc1Sc1ccccc1)c1ccccc1F	-6.0%	-12.2%
CCc1cc2c(=O)c(-c3nc(C)cs3)c(CCCC(=O)O)oc2cc1O	-0.5%	i
COc1ccc(S(=O)(=O)NC2(C(F)(F)F)NC(=O)N(CCc3ccc(OC)c(OC)c3)C2=O)cc1 (centres undefined)	-10.5%&-14.0%	-21.4%
Cc1ccccc1Nc1c(-c2cc(Br)ccc2F)nc2ccccn12	-9.3%	-22.3%
N/C(=N\OC(=O)CCCOc1ccccc1)c1ccncc1	-9.3%	i
CC1=NN(C(=O)CSCc2ccccc2)C(O)(c2ccc(F)cc2)C1 (centres undefined)	-10.6%	-25.0%
Fc1ccc(F)c(NC(=S)NCCc2ccccc2)c1	-1.6%	-3.7%
COc1ccc(-c2cnc3c(NC=O)cc(-c4cc(OC)c(OC)c(OC)c4)cn23)cc1OC	-24.8%	-11.6%
